# Screening results from PubChem BioAssay.
# gsp agonist – gsp mutant agonism; gsp mutant cells, cAMP HTRF, 30 min; control for the full effect not named in the record; Potency, µM (doses to about 76.9 µM), for inactives: at the top dose activation (cAMP increase), most hits filed as activators; 0.13% of 340,000 active; active = well fitted activation curve with a large enough effect; inconclusive = small, poorly fitted or top-dose-only effect, or another doubt; inactive = no such curve, though single readings can be large or run the other way; cell line not stated here;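 also: phosphodiesterase inhibitor Ro 20-1724 added with compounds to block cAMP breakdown; potency is read from the fitted curve at half-maximal effect; nearly all actives have a fitted effect of over 60% in size; about a fifth of the inactives were tested at one dose only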
#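 Cells stably selected in G418 were plated at 2000/well, grown 16-24 hr, then given compounds in DMSO with the PDE inhibitor […] (300 uM solution added) for 30 min at 37C; cAMP was read by HTRF.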
# Menin-MLL FL inh – displaces fluorescein MLL peptide from human menin. Fluorescence polarization, fluorescein-MLL peptide displacement from menin. FP activity change, % at 61.4 µM. 290,000 tested, under 10 active. AID 1766; inconclusive = falling polarisation curve, or a change in total fluorescence; inactive = total fluorescence flat and polarisation flat or rising; no compound was filed as active; the % refers to the polarisation; negative = inhibition;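 also: % of control where 0% means no effect; inhibitors lower the polarisation; unlabelled MLL peptide was the positive control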
# ClpP mod – qHTS Assay for Activators of ClpP; ATP-dependent Clp protease proteolytic subunit (Bacillus subtilis (strain 168)), P80244; purified B. subtilis ClpP, FRET peptide cleavage, 20 min; Potency, µM (highest dose often 57.5 µM), for inactives: at the top dose activity change, negative = active; 1.9% of 340,000 active; active = well fitted falling curve with a large enough effect; inconclusive = small, poorly fitted or top-dose-only effect; inactive = no such curve, though single readings can be large or run the other way; also: potency is read from the fitted curve at half-maximal effect; the source files actives as falling curves though it sought activators and does not explain the sign; nearly all actives have a fitted effect of over 65% in size; many hits overshoot -100%
# Target sequence (P80244 whole entry, looked up): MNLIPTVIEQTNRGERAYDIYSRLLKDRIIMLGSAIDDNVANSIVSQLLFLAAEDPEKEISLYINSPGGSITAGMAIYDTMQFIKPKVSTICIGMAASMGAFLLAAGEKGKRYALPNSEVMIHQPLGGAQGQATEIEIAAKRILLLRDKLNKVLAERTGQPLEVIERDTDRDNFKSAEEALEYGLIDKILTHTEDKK
#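 ClpP 10 microg/mL final, pH 8 Tris/KCl buffer with BSA, glycerol, Tween-20; compound pinned in; FRET-FV substrate; RT 20 min; Ex320/Em430; ΔFRET vs ADEP 5.8 microM, DMSO, no enzyme.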
# PINK1 modulator – changes PINK1 expression; PINK1 immunofluorescence, high-content cytometry, 24 h; AID 624263; 0.2% of 410,000 active; Potency, µM (doses to about 76.6 µM), inactives show at the top dose activation (PINK1 increase), actives largely listed as activators; active = well fitted activation curve with a large enough effect; inconclusive = small, poorly fitted or top-dose-only effect; inactive = flat fitted curve, though single readings scatter; cell line not stated here;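 also: potency is read from the fitted curve at half-maximal effect; % of control where 0% means no effect; nearly all actives have a fitted effect of over 65% in size; a mitochondrial uncoupler was the plate control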
#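 Readout is PINK1 immunofluorescence, quantified alongside mitochondrial, cell and nuclear markers by laser-scanning microplate cytometry. Cells from a stable line were exposed to compound titrations (5 concentrations) for 24 hours, with CCCP controls.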
# gsp antag – gsp mutant antagonism | gsp-mutant cells, cAMP HTRF, 30 min; control for the full effect not named in the record | Potency, µM (series often up to 76.9 µM), without a hit: top-dose activity change, negative = inhibition, most hits filed as inhibitors | 0.4% of 340,000 active; active = falling curve of any shape with a large fitted effect; inconclusive = falling curve, mostly with a smaller effect; inactive = flat or rising curve; cell line not stated here;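 also: intracellular cAMP measured with PDE inhibitor Ro 20-1724 present during compound exposure; potency is read from the fitted curve at half-maximal effect; % is scaled to controls: 0 for no effect and ±100 for the full control effect; nearly all actives have a fitted effect of over 65% in size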
#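 Cells in G418 medium, seeded 16-24 h, 37C; buffer exchange to DPBS + 1 mM CaCl2, 0.5 mM MgCl2, 0.05% BSA; cpds in DMSO + […] (300 uM stock), 30 min 37C; HTRF cAMP detection.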
# Sfp PPTase inh – inhibitors of Bacillus subtilis Sfp phosphopantetheinyl transferase | Q9F4F7 | Biochemical Sfp PPTase activity, qHTS | Potency, µM, for the others: max response, negative = inhibition, actives largely listed as inhibitors | 3.5% of 310,000 active | AID 1490; active = well fitted inhibition curve with a large enough effect; inconclusive = small, poorly fitted or top-dose-only effect, or another doubt; inactive = no such curve, though single readings can be large or run the other way;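 also: the enzyme is Sfp with the accession as filed and its product quenches rhodamine fluorescence; potency is read from the fitted curve at half-maximal effect; 0% = enzyme reaction without inhibitor and -100% = no enzyme wells; top concentration of the series not given in the record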
#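 Fluorescence-quenching assay: 15 nM Sfp-PPTase preincubated 15 min at room temperature with compound, then 5 uM rhodamine-CoA and 12.5 uM BHQ-2-labelled YbbR peptide added. Fluorescence (ex 525/em 598 nm) read at start and after 30 min; difference gives rate.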
# D2 ag – activates the human D2 dopamine receptor; 0.084% of 360,000 active; DiscoveRx PathHunter D2 beta-arrestin, luminescence, 90 min; 100% = 57 uM dopamine signal; P14416; activation, % (no concentration beside the values); AID 624465; in the data active = activation above about 40%; inconclusive = about 15% to 40%; inactive = below about 15%; also: compound concentration not given in the record; the text of the record calls up to 30% inactive
# Target sequence (P14416 whole entry, looked up): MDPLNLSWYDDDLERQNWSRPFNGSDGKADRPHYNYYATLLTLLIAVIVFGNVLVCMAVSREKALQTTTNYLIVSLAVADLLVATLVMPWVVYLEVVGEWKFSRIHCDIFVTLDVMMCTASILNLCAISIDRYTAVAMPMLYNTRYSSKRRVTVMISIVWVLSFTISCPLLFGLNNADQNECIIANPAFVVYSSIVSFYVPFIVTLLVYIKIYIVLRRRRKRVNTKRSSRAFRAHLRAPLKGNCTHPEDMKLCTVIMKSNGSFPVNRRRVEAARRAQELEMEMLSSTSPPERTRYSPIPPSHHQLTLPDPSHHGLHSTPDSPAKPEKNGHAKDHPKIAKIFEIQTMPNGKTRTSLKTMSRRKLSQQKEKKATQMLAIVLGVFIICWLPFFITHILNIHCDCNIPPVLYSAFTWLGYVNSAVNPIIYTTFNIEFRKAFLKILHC
#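 DiscoveRx PathHunter D2 beta-arrestin cells (2,100/well) attached overnight, then compound-stimulated 90 min at 37 C in HBSS/10 mM HEPES/0.1% Tween-20 buffer; beta-galactosidase complementation read by luminescence after 1 h at ambient temperature. Dopamine 57 uM final (EC100) as control.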
# Active calls of the source: *; u = inconclusive; x = no result given; [ ] = another dose, or the depositor's remark. No enrichment for hits, and some 5.1% of all compounds hit somewhere here.
SMILES,gsp agonist,Menin-MLL FL inh,ClpP mod,PINK1 modulator,gsp antag,Sfp PPTase inh,D2 ag
O=C(CSC1=NS(=O)(=O)c2cc(Cl)ccc2N1)NCCc1ccccc1,13%,x,2.6%,0.0%,-4%,x,2.1
CC(C(=O)Nc1ccccc1)N(C)CCOc1ccc(Br)cc1 (centres undefined),13%,-0.5,x,4.4%,-10%,-14%,2.4
O=C(O)CCN1C(=O)c2ccccc2Sc2ncccc21,u,-2.6,0.0%,-0.1%,6%,14%,-4.9
CC1=C(C#N)CCC(=O)N1Cc1c(C)cc(C)cc1C,-34%[inhibitor],3.4,-1.3%,-0.3%,-4%,1%,2.2
CC(C)[C@H](NC(=O)c1ccccc1F)C(=O)OCC(=O)NC1CC1,12%,x,1.8%,-1.6%,14%,x,-0.5
COC(=O)C1=C(C(=O)c2ccc(C)cc2)C(c2ccc(OC)c(OC)c2)n2nnnc2N1 (centres undefined),35%,1.3,-1.6%,-1.3%,4%,-6%,-4.5
COc1cc(-c2nc3cnccn3c2Nc2ccc(C(C)C)cc2)ccc1O,17%,0.6,u,2.9%,6%,11%,3.0
O=C(CN1CCN(C(=O)c2ccco2)CC1)Nc1ccc(Cl)c(S(=O)(=O)N2CCOCC2)c1,2%[15.4 µM],0.9,x,1.9%,-6%,-1%,-5.1
COc1ccc(C2c3[nH]c4ccccc4c3CCN2CCCn2cccn2)cc1C (centres undefined),27%,-1.1,x,1.6%,15%,0%,-5.2
COC(C(=O)Nc1ccccc1C(=O)N1CCOCC1)c1ccccc1 (centres undefined),-17%,x,0.9%,-0.5%,2%,11%,1.8
O=C(CCCc1nc(-c2ccccc2)no1)NC1CCCCC1,14%,-2.1,x,-0.9%,-6%,13%,1.7
Cc1ccc(NC(=O)CN(C)C(=O)COc2ccccc2-c2ccccc2)cc1,15%,x,x,5.6%,-21%,x,-0.2
CSc1nc2c(c(=O)[nH]1)C(c1ccc(Cl)cc1)CC(=O)N2 (centres undefined),-4%[15.4 µM],1.7,x,-1.7%,x,20%,-1.8
CCCC(O)(c1ccc(CC)cc1)C(CN1CCOCC1)c1ccccc1 (centres undefined),-9%[15.4 µM],-20,1.5%,10%,1%,0%,-2.0
COc1ccc(-c2oc(=O)c3cc(OC)c(OC)cc3c2/C=C/c2ccc(F)cc2)cc1,u,x,-21%,-1.7%,0%,x,1.6
NC(=S)N=Nc1c(O)[nH]c2ccc(F)cc12,5%,-1.3,4.5%,12%,15%,u,-4.2
CCOC(=O)c1c(NC(=O)CNC2CCCCC2)sc(C)c1C,15%,6.5,x,u,-8%,u,-2.0
O=C(CN(CCCN1CCOCC1)C(=O)Cn1nnc(-c2ccc(F)cc2)n1)NC1CCCCC1,u,0.8,-0.1%,0.5%[38.3 µM],1%,-5%,-3.8
CN(C)C(=O)NC1C=CS(=O)(=O)C1 (centres undefined),-28%,1.0,-3.0%,8.1%,17%,-25%,2.8
CCOc1ccc(N(CC(=O)N/N=C/c2ccccn2)S(=O)(=O)c2ccc(Cl)cc2)cc1,6%,x,-0.8%,4.7%,-15%,4%,4.1
CCOC(=O)c1cnc(SC)nc1Oc1cccc(NC(=O)c2ccc(C)cc2)c1,13%,-0.8,1.3%,-1.2%,8%,9%,1.9
COc1cc(/C=N/n2c(-c3ccccc3)n[nH]c2=S)cc(OC)c1OC,5%[15.4 µM],4.0,x,6.8%,6%,-11%,0.1
O=C(CO/N=C/c1ccc(Cl)cc1Cl)NNC(=O)c1ccc(Cl)cc1Cl,-72%[inhibitor],0.5,0.3%,4.3%,-4%,9%,-1.5
O=C(O)CCN=CC1=C(O)CC(c2ccccc2)CC1=O (centres undefined),-12%[15.4 µM],-6.4,x,0.1%,7%,10%,-3.3
COc1ccc(OC)c(NC(=O)COC(=O)CSc2ccc(Cl)cc2)c1,1%,1.3,0.9%,0.3%,-12%,5%,-4.9
CCOCC(=O)Nc1ccc([N+](=O)[O-])cc1OC,-4%[15.4 µM],-0.5,x,1.4%,2%,28%,-3.7
O=C(N/N=C/c1ccc2c(c1)OCO2)C(=O)Nc1cccc(Cl)c1,0%,-2.3,x,-0.9%,0%,11%,-5.3
COc1ccc(NC(=O)C2(c3cccs3)CCOCC2)cc1,-1%,0.7,-3.6%,1.2%,3%,21%,2.7
O=C1CN(C(=O)CSc2nnnn2-c2ccc(Cl)cc2)c2ccccc2N1,-46%[inhibitor],4.3,-1.9%,3.5%,-20%,-17%,-0.7
C#CCOCCOCCOCCNc1nc(N2CCN(C(=O)[C@H](CCCN=C(N)N)n3cc(C(N)[C@@H](C)CC)nn3)CC2)nc(N2CCN(C(=O)[C@H](CC(N)=O)n3cc([C@@H](N)C(C)C)nn3)CC2)n1 (some centres undefined),x,x,-1.9%,0.6%,-3%,x,-3.8
Cc1c(C(=O)NC(=S)N(Cc2ccccc2)c2ccccn2)cccc1[N+](=O)[O-],4%,x,u,0.4%,-1%,x,-5.9
C=CCn1c(SCC(=O)Nc2ccc3c(c2)OCCO3)nnc1-c1ccco1,-83%[inhibitor],-0.3,-6.1%,2.0%,1%,2%,-1.7
C[C@H]1CN([C@@H](C)CO)C(=O)CCCn2cc(nn2)CO[C@@H]1CN(C)C(=O)Nc1ccc2c(c1)OCCO2,10%,x,-2.1%,-1.2%,x,x,-1.4
CC(C)NC(=O)N1CCCC2(CCN(S(=O)(=O)c3ccccc3)CC2)C1,x,0.4,x,0.8%,x,13%,x
CCN(c1cccc(C)c1)S(=O)(=O)c1cnc[nH]1,-31%[inhibitor],-1.0,-2.6%,3.0%[38.3 µM],1%,18%,-0.3
CCCn1nc(C(=O)NNC(=O)CCCOc2ccc(C)cc2)c2ccccc2c1=O,6%[15.4 µM],x,-1.0%,0.1%,-7%,-26%,2.6
Cc1cc(C(=O)OCC(=O)N2CC(C)OC(C)C2)c(C)n1-c1ccccc1 (centres undefined),-7%,x,-1.2%,0.5%,6%,x,2.0
CC1CCCN(C(=O)CNC(=O)Cn2ccc3ccccc3c2=O)C1 (centres undefined),-29%,-0.5,-26%,3.1%,11%,15%,-1.0
Cc1nnc(N/N=C/c2cccs2)[nH]c1=O,5%,-3.5,0.1%,-1.0%,-2%,89µM*,-6.0
O=C(CCc1nc2ccccc2c(=O)[nH]1)OCc1ccc(Cl)cc1Cl,11%,x,15%,0.6%,3%,7%,-2.2
CN(Cc1ccc(Cl)cc1)C(=O)CCl,-19%,0.0,1.4%,-1.0%,2%,9%,-2.1
CCOCCCNC(=O)c1cc2sc(Cl)cc2n1CC,-5%,1.1,-2.5%,13%[38.3 µM],8%,-23%,-3.3
Cc1ccc(OCC(=O)Nc2nnc(-c3ccco3)s2)cc1,-11%[15.4 µM],8.5,x,2.1%,-1%,79µM*,-2.4
Cc1ccc(CN2CCN(C(=O)c3cccc4ccccc34)CC2)cc1,-25%,-0.3,x,0.5%,-8%,-36%,-1.6
CCNC(=O)CSc1nc2ccccc2c(=O)n1-c1cc(OC)ccc1OC,20%,1.0,-1.7%,1.1%[38.3 µM],-9%,-6%,-1.0
O=S1(=O)C=CC(Nc2ccccc2)C1 (centres undefined),0%,-2.1,3.5%,-1.6%,2%,19%,-1.5
CCOC(=O)CSc1n[nH]c(-c2cccnc2)n1,5%[15.4 µM],5.1,-1.1%,0.6%,-1%,10%,-9.0
Oc1cccc(/C=N/n2c(C3CCCCC3)n[nH]c2=S)c1,-2%[15.4 µM],0.4,-2.0%,3.3%,0%,-7%,-4.2
O=C(O)c1ccc(CNC(=O)c2ccc(C(F)(F)F)cc2)cc1,6%[15.4 µM],1.8,x,-0.4%,9%,9%,4.7
Cc1onc(-c2ccccc2Cl)c1C(=O)OCC(=O)c1c(N)n(C)c(=O)n(C)c1=O,-8%,1.5,x,-0.2%,-18%,9%,9.9
Cc1cc(C(=O)N2CCCC(N3CCN(Cc4ccc5c(c4)OCO5)CC3)C2)n[nH]1 (centres undefined),5%,-1.0,1.3%,-1.5%,10%,8%,-2.3
COc1cc(/C=C2\C(=N)N3N=C(S(C)(=O)=O)SC3=NC2=O)ccc1OCCOc1ccc(C)cc1,u,-17,-3.3%,2.3%,-13%,-20%,-1.4
Cc1ccccc1-c1nnn(CC(=O)Nc2ccc3c(c2)OCO3)n1,-34%,-6.2,3.1%,1.2%,-3%,7%,5.4
O=C(C1CC1)N1CCc2cc(Br)cc(S(=O)(=O)NCc3ccco3)c21,15%,-2.4,-1.2%,-1.3%,u,2%,-1.6
CC1CCN(C(=O)c2ccc(N3C(=O)C4CCC(C)CC4C3=O)cc2)CC1 (centres undefined),5%[15.4 µM],-1.4,x,-0.1%,-3%,-6%,-1.0
O=c1[nH]c(CN2CCN(S(=O)(=O)/C=C/c3ccccc3)CC2)nc2ccccc12,u,6.3,x,1.8%,0%,5%,0.3
COc1cccc(N(CC(=O)N2CCN(C)CC2)S(=O)(=O)c2ccccc2)c1,-26%,4.9,-0.5%,-5.9%[38.3 µM],4%,9%,-0.5
CCn1c(SCC(=O)N2CCCc3ccccc32)nnc1-c1ccoc1C,-12%,4.3,-0.3%,-1.4%,-4%,20%,-3.9
O=C(O)CCNS(=O)(=O)c1ccccc1,6%,1.2,-0.3%,-0.2%,7%,8%,-4.4
Cc1oc2ccc(OS(C)(=O)=O)cc2c1C(=O)OC(C)C,-2%[15.4 µM],-4.1,x,0.2%,3%,21%,0.0
COc1ccc(NS(=O)(=O)c2cccc(C(=O)NNC(=O)CNC(=O)c3ccc(C)cc3)c2)cc1,-3%,x,0.8%,2.0%,12%,x,-5.7
CC(=O)c1c(C)[nH]c(C(=O)C(C)Sc2nnc(NC3CC3)s2)c1C (centres undefined),u,x,-1.3%,1.5%,-7%,x,3.4
